Source: PubChem (National Center for Advancing Translational Sciences (NCATS))
NPR1 antag – antagonists of human natriuretic peptide receptor Npr1 | HEK293 hNpr1 GloSensor cGMP, ANP-stimulated luminescence | Potency, µM (series often up to 46.3 µM), for inactives: at the highest dose activity change, negative = inhibition, most hits filed as inhibitors | 1.6% of 76,000 active; active = well fitted inhibition curve with a large enough effect; inconclusive = small, poorly fitted or top-dose-only effect; inactive = no such curve, though single readings can be large or run the other way;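 note: nearly all actives have a fitted effect of over 60% in size; nearly all hits also lower the signal before the agonist is added; a reference antagonist and vehicle were the controls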
Target sequence (P16066 whole entry, looked up): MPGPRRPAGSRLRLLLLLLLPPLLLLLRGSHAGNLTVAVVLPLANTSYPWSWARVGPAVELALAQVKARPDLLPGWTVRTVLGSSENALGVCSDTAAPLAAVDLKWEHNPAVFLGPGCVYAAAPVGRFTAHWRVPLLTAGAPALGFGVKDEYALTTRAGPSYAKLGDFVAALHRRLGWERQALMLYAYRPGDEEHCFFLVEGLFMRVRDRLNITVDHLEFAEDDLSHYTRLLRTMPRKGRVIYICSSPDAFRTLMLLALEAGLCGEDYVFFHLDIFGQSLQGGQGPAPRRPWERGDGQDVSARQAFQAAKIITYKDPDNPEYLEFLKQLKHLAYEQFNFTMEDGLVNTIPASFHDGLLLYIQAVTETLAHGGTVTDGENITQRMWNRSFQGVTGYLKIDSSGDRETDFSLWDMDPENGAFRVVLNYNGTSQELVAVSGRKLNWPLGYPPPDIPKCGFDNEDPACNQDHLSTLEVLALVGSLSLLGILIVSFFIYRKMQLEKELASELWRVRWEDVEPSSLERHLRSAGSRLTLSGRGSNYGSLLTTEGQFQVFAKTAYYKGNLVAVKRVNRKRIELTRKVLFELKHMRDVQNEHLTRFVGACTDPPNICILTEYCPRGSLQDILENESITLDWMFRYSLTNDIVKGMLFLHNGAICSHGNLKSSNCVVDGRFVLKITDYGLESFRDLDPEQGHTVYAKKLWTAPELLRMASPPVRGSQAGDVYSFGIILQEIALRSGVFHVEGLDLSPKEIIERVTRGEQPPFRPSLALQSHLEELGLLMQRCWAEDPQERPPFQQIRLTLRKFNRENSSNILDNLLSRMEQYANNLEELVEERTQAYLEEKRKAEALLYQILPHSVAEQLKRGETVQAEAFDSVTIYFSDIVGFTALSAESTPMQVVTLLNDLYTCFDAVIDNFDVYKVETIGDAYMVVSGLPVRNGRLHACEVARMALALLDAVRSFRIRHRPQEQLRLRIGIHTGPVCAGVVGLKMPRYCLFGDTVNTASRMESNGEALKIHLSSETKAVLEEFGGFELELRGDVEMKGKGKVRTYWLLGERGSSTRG
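HEK293 cells stably expressing human Npr1 and cGMP GloSensor pGS-40F, loaded 2 h with 2% GloSensor reagent, given compound 30 min at room temperature. Luminescence read before and 20 min after 0.1 nM hNppA.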
Numbers without * were called inactive; ? = inconclusive; [ ] = dose if it differs, or a comment. % is set by controls: 0 for no effect and ±100 for the full control effect; potency is the fitted concentration of half-maximal effect.

NPR1 antag | mol
-3% | Cc1noc(C2CC3(CCN(C(=O)c4n[nH]c5ccccc45)CC3)CN2C)n1 (stereo not drawn)
-17%[70.6 µM] | Cc1noc(C)c1-c1cc2c(cc(C)n2C)c(-c2cccc([S+](C)(=O)[O-])c2)n1
-14%[70.6 µM] | COc1ccc(-c2noc([C@@H]3C[C@@H](O)CN3Cc3cccs3)n2)cc1
5% | CC(C)Cc1cc(C(=O)N2CCCC(OCc3ccccn3)C2)n(C)n1 (stereo not drawn)
2%[70.6 µM] | CC[C@H]1CN(S(C)(=O)=O)CC[C@H]1CC(=O)NCc1ccco1
-2% | CC(C)Oc1cccc(-c2ccc(C(=O)N(C)C)cc2)c1
? | COc1cccc(C(=O)N2CCN(C(=O)c3nnn4c3COC(c3ccc(F)cc3)C4)CC2)c1 (stereo not drawn)
-8% | COc1ccccc1CC(=O)NCc1nnc2cc(-c3nc(C(C)C)no3)ccn12
? | CCC(CC)C(=O)N[C@H]1C[C@@H](Cc2cc(COc3ccccc3)on2)C1(C)C
14% | COc1ccc(NC(=O)N2C[C@@H]3C[C@H](C2)c2ccc(NC(=O)c4ccc(F)cc4)c(=O)n2C3)cc1
2% | Cc1ccc(Cn2c(C3CCN(C(=O)c4ccc5c(c4)OCO5)CC3)n[nH]c2=O)cc1
-1% | CCc1cc(NCC(O)CN2CCCCC2)ncn1 (stereo not drawn)
9% | O=C(c1ccccc1F)N1CCCN(c2nc3ncccc3o2)CC1
? | CN1c2cc(C(=O)Nc3ccc(OC(F)(F)F)cc3)ccc2C(=O)N2CCCCC21 (stereo not drawn)
-3% | O=C1CCN(C(=O)C2CCN(C(=O)CCC3CCCC3)CC2)CCCCCCN1
-5% | O=C(O)c1ccc2c(c1)N(S(=O)(=O)c1ccccc1F)CC2
0% | O=C(CC1CCCN(c2cnn(CC3CC3)c(=O)c2)C1)NCC1CC1 (stereo not drawn)
4% | CCCn1c(C)cnc1CC1CCCN(C(=O)c2ccncc2)C1 (stereo not drawn)
0% | CCN1c2cc(C(=O)N3CCN(c4ccccc4)CC3)ccc2C(=O)N2CCCCCC21 (stereo not drawn)
-1% | COc1cccc2ccc(-c3nccn3CC3(CO)CCOCC3)nc12
-8% | CN(C)c1ccc(-c2nnnn2[C@H]2CO[C@H]3[C@@H]2OC[C@@H]3NC(=O)Nc2ccc(Oc3ccccc3)cc2)cc1
5%[70.6 µM] | Cc1cc(C)nc(N2CCC(COc3ccc4c(cnn4CCC(=O)O)c3)CC2)n1
3% | COCC(=O)N[C@@H]1CN(Cc2cnn(C(C)C)c2)C[C@H]1CO
6% | CCOCC(=O)N1CCCC(c2cc(N3CCOCC3)nc(C)n2)C1 (stereo not drawn)
8% | COCc1cn(C[C@H]2C[C@@H](NCc3nccn3C)[C@H](O)[C@@H]2O)nn1
14% | CCOc1ccc(C(=O)N2CCCC3(C2)NC(=O)N(Cc2ccccc2)C3=O)cc1 (stereo not drawn)
1% | Cc1ccc(NC(=O)Cn2ccn3nc(-c4ccc(F)cc4)c(CO)c3c2=O)c(Cl)c1
-11%[70.6 µM] | CC[C@H]1CN(S(=O)(=O)c2c(C)noc2C)CC[C@H]1CC(=O)Nc1nccs1
1% | CCCn1c(C)cnc1C1CCN(S(C)(=O)=O)C1 (stereo not drawn)
1% | CCN1CCCC2(CCN(C(=O)CCc3n[nH]c(C)c3C)C2)C1=O (stereo not drawn)

Part of the list above in order of SMILES length, descending.
NPR1 antag | mol
1% | Cc1ccc(NC(=O)Cn2ccn3nc(-c4ccc(F)cc4)c(CO)c3c2=O)c(Cl)c1
-11%[70.6 µM] | CC[C@H]1CN(S(=O)(=O)c2c(C)noc2C)CC[C@H]1CC(=O)Nc1nccs1
5%[70.6 µM] | Cc1cc(C)nc(N2CCC(COc3ccc4c(cnn4CCC(=O)O)c3)CC2)n1
3% | COCC(=O)N[C@@H]1CN(Cc2cnn(C(C)C)c2)C[C@H]1CO
6% | CCOCC(=O)N1CCCC(c2cc(N3CCOCC3)nc(C)n2)C1 (stereo not drawn)

Further structures follow.
NPR1 antag | mol
4% | O=C1CCCCN1Cc1nc(C2CCOC2)no1 (stereo not drawn)
-1% | Cc1noc(C)c1S(=O)(=O)N1CC(C(=O)NC2CCCCC2)C2(CCOCC2)C1 (stereo not drawn)
-1% | O=C(NCc1cccs1)c1ccc2c(c1)CC(=O)N2Cc1ccc(F)cc1
2% | O=C1CCN(C(=O)C2CCOCC2)CCCC(c2nc(-c3cccnc3)no2)CCN1 (stereo not drawn)
0% | COc1ccc(N2CC(C(=O)NCc3cccc(Cl)c3)NC2=O)cc1 (stereo not drawn)
4%[70.6 µM] | O=C1CO[C@H]2CCN(Cc3cccs3)CC[C@@H]2N1Cc1ccccc1
1% | CCOCc1nc(C2CCCN(C(=O)c3ccsc3)C2)no1 (stereo not drawn)
3%[70.6 µM] | O=C(NC[C@H]1OC[C@@H](N(Cc2cnc[nH]2)Cc2cnc[nH]2)[C@@H]1O)C1CCCC1
0%[70.6 µM] | COc1ccc(CN2CCOC[C@H]2c2ncc(-c3ccc(S(C)(=O)=O)cc3)[nH]2)cc1
-1%[70.6 µM] | COCC(=O)Nc1ccc(-c2noc([C@@H]3CCCN3Cc3cccnc3)n2)cn1
-5% | CC(C)NC(=O)C1COC2(CCN(C(=O)c3cccc([N+](=O)[O-])c3)CC2)N1C(=O)c1ccccc1 (stereo not drawn)
10%[70.6 µM] | c1coc(-c2nc3ccncc3[nH]2)c1
0%[70.6 µM] | Cn1ccc2c(C(=O)NCC3CCC(=O)N3)nc(-c3ccccc3O)cc21 (stereo not drawn)
3% | COCCCNC(=O)N1CCCC(COc2ccccc2C(=O)N2CCCCC2)C1 (stereo not drawn)
0% | COc1ccc(C(=O)N2CCC(c3nn(-c4ccc(F)cc4)c(=O)[nH]3)CC2)cc1
7%[70.6 µM] | COCC(=O)NC[C@H]1O[C@H](Cc2cc(CN(C)C)on2)CC[C@@H]1O
2% | Cc1cc(C(=O)N2CCCC(c3nccn3Cc3ccccn3)C2)c(C)o1 (stereo not drawn)
-1% | COc1ccc(N2CCN(C(=O)Cn3cccc3-c3nc(-c4ccc5c(c4)OCO5)no3)CC2)cc1
1% | Cc1cnc(CCNC(=O)c2ccco2)n1C1CCC1
-1% | CCS(=O)(=O)c1ncc(CN(C)Cc2cn(C)nc2C)n1CCc1ccccc1
1% | COc1cc(NC(=O)NC[C@H]2O[C@@H](CO)[C@@H](O)[C@H]2N2CCC(C)CC2)cc(OC)c1
-13% | Cn1nccc1C(=O)N1CCCC(c2noc(COc3ccccc3)n2)C1 (stereo not drawn)
-1% | Cc1ccc(C(=O)N2CCC3(CC2)N=C(c2ccccc2)NO3)cc1F
-1% | CCCn1c(C)cnc1C1CCN(C(=O)C2CC2)C1 (stereo not drawn)
-19% | Cn1c2c(c3ccccc31)CN(C(=O)Nc1ccc(Cl)cc1Cl)CC2
-2% | CC(C)Cc1noc(CN(C)C(=O)CC2C(=O)NCCN2CC(C)C)n1 (stereo not drawn)
-12% | Cn1cccc1C(=O)N1CCCC(c2nc(CCOCC3CCOCC3)no2)C1 (stereo not drawn)
6% | CC(C)c1csc(CN2CCN(c3ncccc3C#N)CC2)n1
-22%[70.6 µM] | COc1ccc(Nc2n[nH]c(C(O)c3cccc(C(F)(F)F)c3)n2)cn1 (stereo not drawn)
-1% | COCCC(=O)N[C@@H]1CN(Cc2ccccc2)C[C@H]1CN(C)C

Overlap with the part before: three compounds, followed by the next part.
NPR1 antag | mol
6% | CC(C)c1csc(CN2CCN(c3ncccc3C#N)CC2)n1
-22%[70.6 µM] | COc1ccc(Nc2n[nH]c(C(O)c3cccc(C(F)(F)F)c3)n2)cn1 (stereo not drawn)
-1% | COCCC(=O)N[C@@H]1CN(Cc2ccccc2)C[C@H]1CN(C)C
4% | O=C(C1CCCO1)N1CCC(N(Cc2ccccc2)C2CCOCC2)CC1 (stereo not drawn)
-1% | CCN1c2cc(C(=O)NCc3cccc(C)c3)ccc2C(=O)N2CCCCCC21 (stereo not drawn)
-12% | O=C([C@@H]1C[C@H](Oc2ccccc2)CN1C(=O)CN1CCCCCC1)N1CCOCC1
? | Cc1cccc(C(=O)N2CCN(C(=O)c3nnn4c3COC(c3ccc(F)cc3)C4)CC2)c1 (stereo not drawn)
? | Cc1nn(C)c2nc(NCCCOC3CCCC3)sc12
-9%[70.6 µM] | O=C1NC2(CCN(C(=O)c3cccnc3)C2)OCc2ccccc21 (stereo not drawn)
3% | CN(Cc1ccccc1CN1CCCC1)C(=O)C1CC2(CCNCC2)CN1C (stereo not drawn)
0% | CCc1nc(-c2c3n(c(=O)n(Cc4ccc(F)c(F)c4)c2=O)CCCCC3)no1
-3% | Cc1cc(CN2C[C@@H](COCC3CC3)[C@H](c3ccccn3)C2)n(C)n1
-7%[70.6 µM] | C[C@@H](NC(=O)c1ccccn1)c1c(-c2ccc(F)cc2)noc1C(=O)O

Copied from the list.
In NPR1 antag, C[C@@H](NC(=O)c1ccccn1)c1c(-c2ccc(F)cc2)noc1C(=O)O is listed with -7%[70.6 µM]
In NPR1 antag, O=C1NC2(CCN(C(=O)c3cccnc3)C2)OCc2ccccc21 (stereo not drawn) is listed with -9%[70.6 µM]

Some of the entries above in a different format.
smiles: CCN1c2cc(C(=O)NCc3cccc(C)c3)ccc2C(=O)N2CCCCCC21 (stereo not drawn)
  NPR1 antag: -1%

smiles: Cc1cc(CN2C[C@@H](COCC3CC3)[C@H](c3ccccn3)C2)n(C)n1
  NPR1 antag: -3%

smiles: CCc1nc(-c2c3n(c(=O)n(Cc4ccc(F)c(F)c4)c2=O)CCCCC3)no1
  NPR1 antag: 0%

smiles: Cc1nn(C)c2nc(NCCCOC3CCCC3)sc12
  NPR1 antag: ?

(list continues)
NPR1 antag | mol
2% | CN(CCCc1cnn(C)c1)C(=O)C1CNCCO1 (stereo not drawn)
-2% | O=C(c1ccncc1)N1CC2CC(C1)[C@H]1CCCC(=O)N1C2 (stereo partly drawn)
-7% | Cc1ccc(NC(=O)CC2CCN(S(C)(=O)=O)C2)cc1 (stereo not drawn)
5% | Cc1nnnn1-c1ccc(NS(=O)(=O)NCc2ccccc2)cc1
0% | CSCc1noc(CNC(=O)c2ccc(-c3ccccc3Cl)o2)n1
5% | CC(C)N(C(=O)c1ccccc1-c1cc(NC2CC2)nc(N)n1)C(C)C
0%[70.6 µM] | CCCN1CC[C@H]2COC(=O)N2c2cc(F)ccc2C1
0% | Cc1ccncc1C(=O)N1CCC2(CC1)CC(N1CCN(c3ccccn3)CC1)CCO2 (stereo not drawn)
0%[70.6 µM] | CN1CCCC2(C1)CN(C)c1ccc(C(=O)Nc3ccccc3)cc12 (stereo not drawn)
-1% | Cc1nc(C)c(C)c(N2CCC(Oc3ccc4ccccc4c3)(C(=O)O)CC2)n1
0% | CNC(=O)[C@@H]1CN(C(=O)c2ccc(C(C)C)cc2)C[C@H]1CO
1% | CCOC(=O)C1=C(C)NC(=O)NC1c1ccccc1 (stereo not drawn)
-22%[70.6 µM] | O=C(NCc1c[nH]c2ncccc12)c1ccc(Cl)cc1
-1% | CCN1CC2(CCN(Cc3nc(COC)no3)CC2)CC(c2ccccc2)C1=O (stereo not drawn)
4%[70.6 µM] | O=C1NC2(CCN(Cc3ccsc3)C2)COc2ccccc21 (stereo not drawn)
1% | O=C1CCN(C(=O)CC2CCCC2)CCCC(c2nc(-c3ccccc3)no2)CCN1 (stereo not drawn)
-3% | O=C(NCCc1ccccc1F)c1cc(Br)cn2ccnc12
0%[70.6 µM] | O=C(Nc1ccc(Cl)nc1)c1cnn2ncccc12
-16% | CC(C)c1ccc(CN2C[C@@H]3C(=O)N(CCCN4CCCC4=O)C(=O)[C@@H]3C2)cc1
-1% | Cc1ccccc1S(=O)(=O)N1CC[C@@H]2CN(c3cnccn3)[C@@H]2C1
-2% | Cc1nn(CCO)cc1-c1c(-c2ccccc2)ncn1CC(=O)O
2%[70.6 µM] | CC(C)NC(=O)C[C@@H]1C[C@H]2O[C@H](CNCc3cnccc3C(F)(F)F)[C@@H](O)[C@H]2O1
-2% | COc1ccc(C(=O)N2CCc3nn(Cc4ccccc4)c(=O)n3CC2)cc1F
-1% | Cn1cc(CN(C(=O)C2CCC(=O)N(Cc3cccc(F)c3)C2)C2CC2)cn1 (stereo not drawn)
2%[70.6 µM] | COCCOc1cc(C)c2c(c1C)C[C@H](C(C)C(=O)N1CCOCC1)CC2 (stereo partly drawn)
4% | COCCN1C(=O)[C@H]2CN(Cc3cccc(OC)c3)C[C@H]2C1=O
1% | O=C(NC1C[C@H]2CC[C@@H](C1)N2C(=O)CCc1ccccc1)c1ccncc1 (stereo partly drawn)
0%[70.6 µM] | COc1ccc2c(c1)CN(C1CCN(C)CC1)CC[C@H]1COC(=O)N21
-12% | O=C(NCc1cccnc1)c1ccc2c(c1)N(C(=O)c1ccc(F)cc1)CC2
-10% | O=C(NCc1ccc2c(c1)OCO2)C1COC2(CCCCC2)N1C(=O)c1cccc(F)c1 (stereo not drawn)
-7% | CC(C)CCNC(=O)C1Cn2cccc2C(=O)N1Cc1ccccc1 (stereo not drawn)
-1%[70.6 µM] | CC(=O)N1CCN(C(=O)C[C@@H]2C[C@@H](C(C)C)[C@H](CC#N)C=C2C)CC1
1% | CNC(=O)[C@@H]1CN(C(=O)c2cc3cc(OC)ccc3[nH]2)C[C@H]1c1nc(C)no1
9% | Cc1nn(-c2ccccc2Cl)c(=O)n1CC(=O)N(C)C(C)c1ccon1 (stereo not drawn)
-19%[70.6 µM] | COc1ccc(CNc2cc(Cl)nc3ccnn23)cc1OC

Only part of the results is shown (hit frequency here may not be typical).
